From PubChem
HCMV UL50-53 inh: inhibitors of HCMV UL50-UL53 interaction, biochemical, HTRF. HCMV UL50-UL53 nuclear egress complex (human cytomegalovirus). normalized percent inhibition. inhibition, % (test concentration not listed). 190,000 compounds, 0.15% hits. AID 1918969, 2023;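 active = both replicates at 50% or more, plus weaker picks with an unusually low signal ratio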;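 note: stock transfer was 100 nL into about 20 µL; 0% = negative control wells and 100% = wells with untagged competitor protein; inactives centre near -12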
GIV-Gai inh: inhibitors of GIV peptide binding to Galpha-i3, primary screen, biochemical, fluorescence polarization, FITC-GIV GBA peptide, rat Galphai3; AID 1224905, 2016; percent of control (FP), % (no concentration beside the values); Guanine nucleotide-binding protein G(i) subunit alpha-3 (Rattus norvegicus), P08753; 210,000 compounds, 0.42% hits; 90 min; active compounds read low; scaled: aluminum fluoride 0%, vehicle 100%;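 active = replicate mean at 85% of control or lower, very high polarization wells dropped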;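 note: wells of about 15 µL received 100 nL stock; the first replicate is given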
Target sequence (P08753 whole entry, looked up): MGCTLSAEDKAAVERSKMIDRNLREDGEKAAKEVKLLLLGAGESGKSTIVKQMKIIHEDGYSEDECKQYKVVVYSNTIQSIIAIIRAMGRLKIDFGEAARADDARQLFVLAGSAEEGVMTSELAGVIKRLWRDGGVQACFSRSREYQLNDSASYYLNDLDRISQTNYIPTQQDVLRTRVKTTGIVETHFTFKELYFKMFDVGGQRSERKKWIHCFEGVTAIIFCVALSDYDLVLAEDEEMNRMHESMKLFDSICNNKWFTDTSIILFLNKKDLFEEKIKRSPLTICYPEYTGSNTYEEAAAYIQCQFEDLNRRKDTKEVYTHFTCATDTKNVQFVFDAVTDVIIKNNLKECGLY
Sa growth 42C: S. aureus growth inhibition at 42 and 30 °C, primary screen, LtaS inhibitor project, RN4220, two temperatures. 170,000 compounds, 0.53% hits. relative growth, % (test concentration not listed). AID 720641, 2013. OD600, 20 h, 42 °C; active compounds read low;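 active = growth at 42 °C up to 50% and 20 or more points under that at 30 °C, or under 10% at both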;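 note: 300 nL library stock went into each well; scaled to the means of positive and negative controls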
Sa growth 42C second temp: second read-out of Sa growth 42C, no call of its own (marks repeat the call); relative growth, %; measured here: growth at 30 °C;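 optical density after 20 h as mean of two plates; 100% = untreated growth and lower means inhibition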
Active calls of the source: *; . = not tested or not shown; & = joins results of further samples.

SMILES | HCMV UL50-53 inh | GIV-Gai inh | Sa growth 42C | Sa growth 42C second temp
C(=N\n1cnnc1)/c1ccco1 | -49 | . | 85 | 84
CCOC(=O)CNS(=O)(=O)c1cc(-c2nnc(Nc3ccc(OC)c(C(N)=O)c3)c3ccccc23)ccc1C | -29 | 109 | . | .
C(=C\c1ccccc1)/CSc1nnc(-c2cccnc2)o1 | . | 100 | 92 | 65
CC(C(=O)Nc1ccc(Cl)cc1)n1nnc2sc3c(c2c1=O)CCCC3 (stereo unspecified) | -23 | 109 | . | .
CC(OC(=O)/C=C/c1cccs1)C(=O)Nc1ccc(S(N)(=O)=O)cc1 (stereo unspecified) | -58 | . | 82 | 90
Cc1ccc(N(Cc2ccco2)C(=O)COc2ccc3oc(=O)cc(C)c3c2)cc1 | -3 | 102 | 90 | 83
C=CCn1cnc2c(nnn2-c2ccc(OC)c(OC)c2)c1=O | -10 | 105 | 109 | 90
CCOC(=O)C1=C(C)C(c2ccc(OC)cc2)NC(=O)N1 (stereo unspecified) | -18 | 97 | 92 | 90
O=c1[nH]c(=S)[nH]c(O)c1N=Nc1ccc(F)cc1 | -106 | . | 96 | 76
C=C(C)CNC(=S)N=Nc1c(O)n(C)c2ccccc12 | -26 | . | 85 | 67
NS(=O)(=O)c1ccc(N2C(=O)Nc3ccccc3N2O)cc1 | -16 | 101 | 91 | 80
Clc1ccc(-c2cn3cccnc3n2)cc1 | -36 | 116&102 | 112 | 92
Nc1nncn1C(=O)c1ccc(Br)cc1 | -5 | 97 | 113 | 96
CCOC(=O)c1c(C)[nH]c(C)c1S(=O)(=O)N1CCCC(C(=O)NCc2ccc(N(C)C)cc2)C1 (stereo unspecified) | . | 105 | 78 | 81
NC(=S)NN1C(=O)C2CC=CCC2C1=O (stereo unspecified) | -20 | . | 86 | 88
COc1ccc(C2=NN(CCC(=O)NCCN3CCN(c4cccc(Cl)c4)CC3)C(=O)CC2)cc1 | . | 101 | 93 | 80
NC(=O)c1ccc2nc3ccsc3c(=O)n2c1 | -59 | 103 | 99 | 84
O=C(Nc1ccc(C(=O)N2CCCCC2)cc1)c1nsc2ccccc12 | . | 105 | 105 | 77
O=c1ccc(-c2nc3cc(Cl)c(Cl)cc3[nH]2)c[nH]1 | -10 | 106 | . | .
CN(C)S(=O)(=O)c1ccc(C(=O)OCC(=O)c2cn(CCC#N)c3ccccc23)cc1 | -6 | . | 96 | 98
CC12CC3(C)CC(C)(C1)CC(C(=O)NC(=S)N1CCCC1)(C2)C3 | . | 103 | 91 | 94
Cc1cc(OCCn2c(C3CC(=O)N(Cc4ccc(F)cc4)C3)nc3ccccc32)ccc1Cl (stereo unspecified) | -34 | 105 | 109 | 82
CCc1nc(SCC#N)c(C#N)cc1C | -4 | 109 | 95 | 102
O=C(NCc1ccccc1Cl)C1=NS(=O)(=O)c2ccccc2N1 | -16 | 102 | . | .
COc1ccc(-n2ncc(C(=O)N3CCN(c4ccccn4)CC3)c2C2CCN(C(=O)OC(C)(C)C)CC2)cc1 | . | 111 | 95 | 90
Cc1ccc(CN2C(=O)CCC2C(=O)O)cc1 (stereo unspecified) | -2 | 100 | 92 | 89
O=S(=O)(NCC(c1cccnc1)N1CCN(c2ccccc2F)CC1)c1cccs1 (stereo unspecified) | -6 | 108 | 112 | 93
CCCNC(=O)c1ccc(Cl)c(S(=O)(=O)Nc2ccccc2)c1 | -27 | 107 | 101 | 78
NC(=O)C1CCN(c2ncnc3c2cnn3-c2ccccc2)CC1 | -14 | 102&99 | 99&104 | 88&86
O=C(CSc1nnc(-c2ccc(NS(=O)(=O)c3ccccc3)cc2)o1)NCC1CCCO1 (stereo unspecified) | -4 | 105 | 113 | 94
COC(=O)c1cn(C)c2ccc(S(=O)(=O)N3CCCCC3)cc2c1=O | . | 100 | 87 | 73
COC(=O)c1c(C)sc(-c2c(-c3ccc(Br)cc3)[nH]c3[nH]c(=O)[nH]c(=O)c23)c1O | -9 | 172 | . | .
CC(=O)N1CCc2cc(CNC(=O)Nc3cc(Cl)ccc3C)ccc21 | . | 101 | 99 | 89
O=C(Cc1ccc(-n2c(=S)[nH]c3ccccc3c2=O)cc1)N1CCCC1 | . | 107 | 97 | 88
NC(=O)c1c(NC(=O)CSc2nc3ccccc3o2)sc2c1CCCC2 | -6 | 103 | . | .
Cc1ccc(-c2csc3nc(N4CCOCC4)cc(=O)n23)cc1 | -12 | 107 | . | .
CC(C)N1C2OC(C3OC4C(O3)N(C(C)C)S(=O)(=O)N4C(C)C)OC2N(C(C)C)S1(=O)=O (stereo unspecified) | -10 | . | 100 | 89
O=C(NCC1CCCO1)c1cnc2sccn2c1=O (stereo unspecified) | 0 | 100 | . | .
CCOC(=O)C1=C(C)N=c2s/c(=C\c3ccc(O)c(OC)c3)c(=O)n2C1c1cc(OC)ccc1OC (stereo unspecified) | -26 | 102 | . | .
COc1ccc(CN2C(=O)CC(C(=O)Nc3ccc(C(=O)O)cc3)SC2=Nc2ccccc2)cc1 (stereo unspecified) | -16 | 104 | . | .
COCCNC(=O)CCn1c(=O)[nH]c2cc(OC)c(OC)cc2c1=O | -12 | 103 | 103 | 89
C=CCSc1nc2c(cc1C#N)CCC2 | . | 103 | 83 | 80
O=S(=O)(c1ccc(Cl)cc1)C(F)(F)F | 10 | . | 97 | 95
CCOC(=O)c1nnc2c(-c3ccccc3)c(C)nn2c1C | -95 | 104 | . | .
Cc1cccc(CNC(=O)CCCN2C(=O)CCn3nc(-c4cn(C)c5ccccc45)cc32)c1 | . | 104 | 87 | 78
Cc1cccc(CCNC(=O)c2ccc(CNc3c(NC4CCCC4)c(=O)c3=O)cc2)c1 | -26 | 100 | . | .
COCCNC(=O)CN1C(=O)COc2ccc(S(=O)(=O)N3CCCC3)cc21 | -6 | 108 | 80 | 99
COC(=O)NC12CC3CC(CC(C3)C1)C2 | . | 96 | 100 | 81
COC(=O)c1[nH]c(C)c(C(=O)OC)c1C | -6 | . | 99 | 91
CC(C)OC(=O)CSc1n[nH]c(=O)[nH]c1=O | -23 | 99 | 97 | 100
COc1ccc(C2CC(=O)C3=C(C2)Nc2ccccc2NC3c2cc(OC)c(O)c(OC)c2)cc1 (stereo unspecified) | -31 | 98 | . | .
Cc1cc(Br)cc2c1N(CCCOc1ccccc1)C(=O)C2=O | -5 | 103 | . | .
CC(=O)Nc1ccccc1OCC(=O)Nc1cc(C)cc(C)c1 | -1 | . | 120 | 97
O=C(OCC(=O)N1CCCC1=O)c1ccc2ncsc2c1 | 10 | . | 93 | 97
Cc1ccc(-c2nn(CC(=O)NC3CCCc4ccccc43)c(=O)c3ccccc23)cc1 (stereo unspecified) | . | 103 | 100 | 88
O=C(CN1C(=O)c2ccccc2C1=O)OCc1cc(=O)n2cc(Br)ccc2n1 | -19 | . | 72 | 93
CCCn1c(N)c(N2CCCCC2)c(=O)n(CC(=O)Nc2ccccc2)c1=O | -20 | . | 83 | 95
NC(=O)c1c(NC(=O)c2cnn3c(C(F)F)cc(-c4ccccc4)nc23)sc2c1CCCC2 | -19 | 104 | . | .
NC(=S)N/N=C1/C2C3CC4C5C3C1C5C1(OCCO1)C42 (stereo unspecified) | -13 | . | 76 | 92
COc1ccc(S(=O)(=O)N2CCCC2C(=O)N2CCc3cc(OC)c(OC)cc3C2)cc1 (stereo unspecified) | . | 105 | 108 | 96

Filtered by structure: the compounds so far with an NH in an aromatic ring (eight)
SMILES | HCMV UL50-53 inh | GIV-Gai inh | Sa growth 42C | Sa growth 42C second temp
O=c1[nH]c(=S)[nH]c(O)c1N=Nc1ccc(F)cc1 | -106 | . | 96 | 76
CCOC(=O)c1c(C)[nH]c(C)c1S(=O)(=O)N1CCCC(C(=O)NCc2ccc(N(C)C)cc2)C1 (stereo unspecified) | . | 105 | 78 | 81
O=c1ccc(-c2nc3cc(Cl)c(Cl)cc3[nH]2)c[nH]1 | -10 | 106 | . | .
COC(=O)c1c(C)sc(-c2c(-c3ccc(Br)cc3)[nH]c3[nH]c(=O)[nH]c(=O)c23)c1O | -9 | 172 | . | .
O=C(Cc1ccc(-n2c(=S)[nH]c3ccccc3c2=O)cc1)N1CCCC1 | . | 107 | 97 | 88
COCCNC(=O)CCn1c(=O)[nH]c2cc(OC)c(OC)cc2c1=O | -12 | 103 | 103 | 89
COC(=O)c1[nH]c(C)c(C(=O)OC)c1C | -6 | . | 99 | 91
CC(C)OC(=O)CSc1n[nH]c(=O)[nH]c1=O | -23 | 99 | 97 | 100

Next entries
SMILES | HCMV UL50-53 inh | GIV-Gai inh | Sa growth 42C | Sa growth 42C second temp
O=C(Nc1ccc(-c2nc3ccc(Br)cc3c(=O)o2)cc1)c1ccco1 | -26 | 97 | 98 | 82
CCOc1cc(CCC(=O)NCCn2ccnc2C)on1 | -25 | 99 | 109 | 81
CCCCN(C(C)(C)C)S(=O)(=O)c1ccc(C)cc1 | 2 | 103 | 106 | 97
COc1cc(Cl)c(NS(=O)(=O)c2ccc(-c3cnc(C4CC4)o3)cc2)c(OC)c1 | . | 99 | 113 | 99
CCN(CC)C(=O)c1ccc(N)cc1 | -7 | . | 70 | 89
COC(=O)c1cn(CC(=O)OCC(=O)Nc2ccc(N3CCOCC3)cc2)c2ccccc12 | -7 | . | 88 | 101
O=C(CCC(=O)N1CCSc2ccccc21)N1CCCCC1 | -22 | 98&109 | 105 | 96
CCOC(=O)c1cccc(NC(=O)NCc2c(C)nn(CC)c2C)c1 | -19 | 101 | . | .
O=C(CSc1ccccc1Cl)N1CCCC1 | -19 | . | 99 | 83
COc1cc(OC)c(NS(=O)(=O)c2c(C)nc3sc4ccccc4n3c2=O)cc1Cl | -32 | 103 | . | .
CN(C)C(=O)c1ccc2c(c1)N(CC(=O)N1CCN(Cc3ccccc3)CC1)C(=O)CO2 | 4 | 102 | . | .
COc1ccccc1CNC(=O)CCC1N=C2c3ccccc3N=C(SCc3ccc(C)cc3C)N2C1=O (stereo unspecified) | -2 | 106 | 97 | 85
Cc1cc2oc(=O)cc(CSc3ncccn3)c2cc1Cl | -4 | . | 105 | 82
CCCn1c2ccccc2c2cnn(CC(=O)NC(C)CC)c(=O)c21 (stereo unspecified) | . | 105 | 127 | 98
Cc1cc(NC(=O)C2c3ccccc3C(=O)N(CC(C)C)C2c2cccs2)no1 (stereo unspecified) | -20 | 98 | 86 | 83
CCCN(Cc1cccs1)C(=O)Nc1cc(C)ccc1OC | -5 | 102 | 123 | 87
CSc1cccc(-n2c(-c3ccc(Cl)cc3)csc2=N)c1 | -22 | 101 | 87 | 71
Cc1ccc(N2C(=O)CC(Sc3nc4ccccc4o3)C2=O)cc1 (stereo unspecified) | -9 | 108 | . | .
CCOC(=O)C1CCN(C(=O)C2CCN(c3nnc(N4CCCC4=O)s3)CC2)CC1 | -21 | 99 | . | .
CCOc1ccccc1NC(=O)Cn1cnc2c1c(=O)n(C)c(=O)n2C | -38 | 99 | 95 | 85
Cc1c(C(=O)N2CCOCC2)oc2c1-c1nn(CC(=O)NCc3cccc(Cl)c3)cc1CC2 | . | 108 | 113 | 84
COc1ccc(CC(=O)NCc2ccc3c(c2)CCN3C(=O)c2ccc(C)cc2)cc1OC | . | 100 | 105 | 89
COC(=O)C12CC3(C(=O)OC)CC(C(=O)OC)(CC(C(=O)OC)(C1)C3=O)C2=O | 3 | . | 112 | 123
O=C(NC1CCCCCC1)C1=CN2CCS(=O)(=O)N=C2C=C1 | -27 | . | 98 | 79

Rows were taken by chance. Share with any hit: about 0.79%.
